TRPML1 ag: activates the human TRPML1 channel; Q9GZU1; activation, % (concentration not given with the values); actives 0.12% (n = 410,000); AID 624414; TRPML1-expressing cells, Ca2+ dye fluorescence, FDSS; host cell line not named in the record; reference of the full effect not given here; in the data active = activation above about 50%; inconclusive = about 30% to 50%; inactive = below about 30%; further: 0% is about no effect; the text of the record puts the active cut at 80%
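Kinetic FDSS Ca2+ read in Tet-induced TRPML1-DL cells (ABD Ca8 dye plus quencher, 45-90 min RT loading): baseline, then compound, then 110 s agonist window; EC80 agonist 54-4 at 4uM final added afterwards for a 110 s antagonist window.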
D2 PAM: human D2 receptor positive allosteric modulation | actives 0.23% (n = 360,000) | potentiation, % (test concentration not listed) | DiscoveRx D2 beta-arrestin cells, luminescence, 90 min; 100% = 57 uM dopamine signal | P14416; active = potentiation of 50% or more; inconclusive = 30% to 50%; inactive = 30% or less;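 further: compound concentration not given in the record; tested on top of an EC20 dose of dopamine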
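D2 cells co-treated with compound plus 50 nM dopamine (EC20) for 90 min at 37 deg C to detect potentiation. Beta-arrestin recruitment was read as enzyme-fragment luminescence after 1 h at ambient temperature. Full response was set by 57 uM dopamine.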
Six1-Eya2 blk: Six1/Eya2 interaction inhibition | Q15475+O00167 | AlphaScreen GST-Six1/His-Eya2 binding, biochemical; active compounds read low; control for the full effect not named in the record | activity change, % (concentration not given with the values) | actives 0.56% (n = 360,000); in the data active = activity change below about -65%; inconclusive = about -30% to -65%; inactive = above about -30%; further: on the % scale 0 is the no-effect control and ±100 the full control effect
Target sequence (O00167 whole entry, looked up): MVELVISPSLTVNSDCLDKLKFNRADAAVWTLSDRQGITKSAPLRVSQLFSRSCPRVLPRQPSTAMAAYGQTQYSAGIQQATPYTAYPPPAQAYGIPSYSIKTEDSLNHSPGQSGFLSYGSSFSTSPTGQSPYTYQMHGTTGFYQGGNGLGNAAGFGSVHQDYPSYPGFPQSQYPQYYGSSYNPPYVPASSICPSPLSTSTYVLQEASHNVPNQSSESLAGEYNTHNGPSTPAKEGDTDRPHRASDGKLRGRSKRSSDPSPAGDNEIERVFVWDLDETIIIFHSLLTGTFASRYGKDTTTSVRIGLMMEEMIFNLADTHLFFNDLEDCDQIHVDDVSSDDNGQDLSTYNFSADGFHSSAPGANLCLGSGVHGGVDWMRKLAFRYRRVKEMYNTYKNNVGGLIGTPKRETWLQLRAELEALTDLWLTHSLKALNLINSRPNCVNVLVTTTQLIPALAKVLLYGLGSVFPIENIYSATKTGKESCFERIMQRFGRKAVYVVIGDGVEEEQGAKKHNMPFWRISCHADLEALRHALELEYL
Target sequence (Q15475 whole entry, looked up): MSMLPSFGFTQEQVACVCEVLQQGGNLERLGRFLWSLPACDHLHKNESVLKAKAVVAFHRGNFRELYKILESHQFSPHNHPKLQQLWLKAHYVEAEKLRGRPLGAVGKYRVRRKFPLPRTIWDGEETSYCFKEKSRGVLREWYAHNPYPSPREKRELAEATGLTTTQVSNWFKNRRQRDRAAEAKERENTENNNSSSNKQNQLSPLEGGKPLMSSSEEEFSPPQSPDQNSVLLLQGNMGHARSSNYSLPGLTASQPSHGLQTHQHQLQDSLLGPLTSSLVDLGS
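AlphaScreen luminescence read after one hour at 37 °C in darkness. Pin-transferred compounds met GST-Six1 and His-Eya2 protein (5X stock 250 nM/500 nM) plus glutathione donor and Ni-chelate acceptor beads (5X, 50 ug/mL).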
TRPV1 PAM: enhances activation of the human vanilloid receptor TRPV1 | Q8NER1 | TRPV1-expressing cells, Fluo-8 calcium influx, capsaicin EC20 potentiation; host cell line not named in the record; control for the full effect not named in the record | potentiation, % at 8.33 µM | actives 0.02% (n = 320,000); active means potentiation above 80%; inconclusive means 30% to 80%; inactive means below 30%; further: 0% is about no effect
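Cells expressing TRPV1 were dye-loaded with Fluo-8 and read kinetically: 10 s baseline, 3 min after compound (agonist portion), then 2 min after EC20 capsaicin (allosteric enhancer portion). Calcium-bound dye fluorescence at 480/520 nm.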
TRPML1 blocker: human mucolipin-1 channel inhibition; TRPML1-inducible cells, Ca2+ dye fluorescence, FDSS; active compounds read low; inhibition of EC80 agonist-evoked calcium signal; actives 0.02% (n = 390,000); activity change, negative = inhibition, % (concentration not given with the values); Q9GZU1; AID 624415; in the data active means activity change below about -50%; inconclusive means about -30% to -50%; inactive means above about -30%;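 further: stimulus is agonist 54-4 at its EC80 concentration; on the % scale 0 is the no-effect control and ±100 the full control effect; the text of the record puts the active cut at -80%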
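Calcium fluorescence in TRPML1-DL cells induced overnight with Tet: a 110 s read after compound pin addition, then a 110 s antagonist read after challenge with 54-4 at 4 uM final (EC80).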
CtBP-E1A inh: inhibitors of CtBP/E1A interaction | AlphaScreen GST-E1A/His-CtBP binding, 1536-well; active compounds read low; control for the full effect not named in the record | activity change, % (test concentration not listed) | actives 0.49% (n = 340,000) | AID 651724; in the data active means activity change below about -65%; inconclusive means about -30% to -65%; inactive means above about -30%; further: on the % scale 0 is the no-effect control and ±100 the full control effect
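Homogeneous bead-based format: GST-tagged E1A captured on glutathione donor beads, His-tagged CtBP on nickel acceptor beads; compounds precede bead addition by 2 h at 37 °C.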
* marks the source's active call; other numbers are inactive results; ? = inconclusive; . = no result given.

SMILES	TRPML1 ag	D2 PAM	Six1-Eya2 blk	TRPV1 PAM	TRPML1 blocker	CtBP-E1A inh
N#C/C(=C/c1ccc(CNS(=O)(=O)c2ccccc2)o1)C(N)=O	1.5	-3.0	-9.5	15.3	7.7	-14.3
Oc1c(C(c2ccccc2Cl)N2CCCC2)ccc2cccnc12 (stereo not drawn)	1.5	-12.0	?	-23.0	-9.4	.
O=S(=O)(c1ccc(Cl)cc1Cl)n1ccc2cccnc21	1.8	1.6	-2.5	-3.9	-19.8	-5.9
O=C(Nc1cnn(Cc2ccc(Cl)cc2Cl)c1)c1noc2c1CCCC2	1.8	-2.3	-10.6	-7.2	23.9	-1.4
Cc1cccc(Cn2c(C(C)(C)C)cc3cccnc32)c1	0.8	-35.5	9.6	2.4	20.0	12.6
Cc1ccccc1-n1nc(CSc2nc3ccccc3[nH]2)c(-c2ccccc2)c1N	0.7	-5.3	-13.6	12.3	12.1	3.2
C(=N\Nc1ccccc1)/c1ccc(N2CCOCC2)cc1	-0.6	3.0	-10.5	-5.3	16.4	8.6
O=[N+]([O-])c1cc(C(F)(F)F)ccc1NCCc1c[nH]c2ccc(O)cc12	0.9	-8.0	?	-5.7	37.5	-12.5
COc1cc(NC(=O)C2CCN(S(=O)(=O)c3cccs3)CC2)c(C(=O)O)cc1OC	-1.1	-7.9	-11.4	.	28.7	0.1
CCOc1cccc(CNCCO)c1OCc1ccc(Cl)cc1	-0.8	-27.1	12.2	28.2	5.9	12.3
NC(=O)[C@@H]1CCCN1C(=O)c1ccc2nc(Cc3cccc(Cl)c3)oc2c1	-0.1	-10.3	11.1	9.4	20.1	4.4
Nc1nnnn1/N=C/c1cc(Br)ccc1O	-0.1	-15.6	-92.3*	.	1.9	-93.8*
Cc1ccc(Cl)cc1-c1cc(C(=O)Nc2ccc(F)cc2)[nH]n1	-0.6	-13.2	8.7	.	.	3.6
Cn1c(SCC2CCCO2)nnc1-c1ccc([N+](=O)[O-])cc1 (stereo not drawn)	0.6	-2.2	1.2	5.3	-8.6	.
CCCCOc1ccc(C2C(C(=O)c3cccs3)=C(O)C(=O)N2CCN2CCOCC2)cc1 (stereo not drawn)	0.1	-9.8	3.9	?	16.9	1.5
CCOP(=O)(OCC)C(NC(=O)Nc1c(C)cc(C)cc1C)c1ccccc1 (stereo not drawn)	-0.3	-6.2	4.6	-2.3	0.0	3.2
COC(=O)C1=C(C)NC(=O)/C1=C\c1cc(C)n(-c2ccccc2F)c1C	0.3	-2.9	-0.4	-0.4	-7.3	0.3
Cc1cc(/C=N/n2cnnc2)c(C)n1-c1ccc2ncccc2c1	1.0	-2.8	0.4	.	-14.1	-5.0
Cc1ccc(NC(=O)c2noc3c2CCC3)cc1C	2.0	2.7	-9.3	-7.1	19.6	9.3
C(=NN=C1c2ccccc2-c2ccccc21)c1c[nH]c2ccccc12	0.4	-21.5	?	.	10.2	0.5
Cc1cccc(-n2cc(C(=O)O)c(=O)cc2C)c1	-0.4	0.4	5.0	4.7	2.5	2.5
CC(NC(=O)COc1ccccc1)C(=O)NCc1ccccc1Cl (stereo not drawn)	0.2	-1.7	9.8	.	-2.7	2.0
CCCCC(C(=O)O)C(C)CC(=O)NNC(=O)c1ccco1 (stereo not drawn)	0.3	-6.0	10.9	-4.4	33.9	13.2
S=C(NC1CCCCC1)N1CCCCC1	0.2	-11.0	15.2	-13.6	-5.6	10.6
COc1ccc(NC(=S)N2C3CCC2CC(NC(=O)NC24CC5CC(CC(C5)C2)C4)C3)c(OC)c1 (stereo not drawn)	-0.3	6.8	-6.7	-4.4	9.0	-9.1
Cc1ccccc1N(C(=O)Cc1c[nH]c2ccccc12)C(C(=O)NC1CCCCC1)c1ccco1 (stereo not drawn)	0.1	-15.8	3.7	1.4	-9.2	7.3
CCOc1ccc(Br)cc1S(=O)(=O)Nc1ccc(Cl)c(S(=O)(=O)N(C)C)c1	0.0	16.2	2.6	1.6	29.6	2.9
O=C(NC1CCCCC1)N1CCC(c2nc(-c3ccc(S(=O)(=O)N4CCCC4)cc3)no2)CC1	0.3	-11.5	3.9	-7.9	-7.4	-5.3
O=C(CCS(=O)(=O)Cc1ccccc1F)NCCc1ccc(Cl)cc1	0.6	-8.5	5.7	-4.1	-17.1	.
Cc1cc(C(=O)CSc2nc(N)cc(N)n2)c(C)n1C1CC1	-0.4	4.6	?	19.0	-10.6	-2.0

Reprinted at random: 2 entries already listed.
SMILES	TRPML1 ag	D2 PAM	Six1-Eya2 blk	TRPV1 PAM	TRPML1 blocker	CtBP-E1A inh
C(=NN=C1c2ccccc2-c2ccccc21)c1c[nH]c2ccccc12	0.4	-21.5	?	.	10.2	0.5
Cc1cc(/C=N/n2cnnc2)c(C)n1-c1ccc2ncccc2c1	1.0	-2.8	0.4	.	-14.1	-5.0

(listing goes on)
SMILES	TRPML1 ag	D2 PAM	Six1-Eya2 blk	TRPV1 PAM	TRPML1 blocker	CtBP-E1A inh
CC(=O)c1cccc(NC(=O)c2csc(-n3nc(C)cc3C(F)(F)F)n2)c1	0.9	-13.8	0.4	2.0	8.1	6.3
CCC(Sc1nc(C)cc(=O)[nH]1)C(=O)Nc1nc(-c2ccccc2)cs1 (stereo not drawn)	1.1	-9.1	-5.3	-2.6	3.3	-15.7
O=C(NCC(=O)N(CCN1CCOCC1)C(C(=O)NC1CCCC1)c1cccs1)c1ccco1 (stereo not drawn)	2.5	-3.5	2.7	8.3	16.7	5.4
O=C(Nc1cccc(C(=O)Nc2ccc(Cl)cn2)c1)c1ccccc1	0.3	-3.0	-1.0	4.0	-3.8	-3.7
CN(Cc1ccc(OC(F)F)cc1)C(=O)c1ccccc1Sc1ccccc1C#N	-0.2	-7.6	2.4	.	-5.7	-0.1
Cc1ccccc1OCC(=O)N/N=C/c1cccn1C	-0.8	-2.5	-14.7	-7.0	-7.6	-6.9
CCN(Cc1ccccc1)S(=O)(=O)c1cc(C(=O)O)ccc1OC	-0.3	-0.4	8.2	-11.4	0.5	0.0
CC(C)NC(=O)CSc1nnc(-c2ccco2)n1N	3.4	6.0	6.5	-0.3	2.1	4.6
CCOc1ccc(-c2cc(C(=O)NN=C3CCN(C)CC3)[nH]n2)cc1	-0.2	-3.8	-3.5	6.1	32.2	-7.3
COc1ccc(OCc2cc(C(=O)NC(C)Cc3cnccn3)no2)c(Cl)c1 (stereo not drawn)	-0.3	-6.5	1.5	8.8	5.5	-21.7
COc1ccc(CNS(=O)(=O)c2ccc(NC(=O)N3CCCCC3)cc2)cc1	0.9	-6.8	2.1	-0.2	11.9	-1.8
Cc1ccccc1C(=O)c1cccn1CC(=O)NCC(C)c1ccccc1 (stereo not drawn)	0.3	-8.2	-5.1	-10.4	12.2	-2.2
Cc1cccc(CN2CCN(Cc3cnn(-c4ccccc4F)c3)CC2CCO)n1 (stereo not drawn)	0.0	-18.2	-5.7	6.7	32.5	.
NC(=O)C1CC(=O)N(Cc2ccc3c(c2)OCO3)C(=Nc2ccccc2)S1 (stereo not drawn)	-0.2	-24.6	-3.0	10.5	6.8	12.4
COc1ccc(N(CC(=O)N2CCN(c3ccccc3F)CC2)S(=O)(=O)c2ccc(C)cc2)cc1	1.1	0.5	3.4	?	11.3	-4.6
CCOC(=O)C1CCCN(C(=O)c2ccncc2)CC1 (stereo not drawn)	0.0	-7.7	5.6	.	.	10.9
COc1ccc(C=NNc2nc3ccccc3s2)cc1	-0.3	-10.7	8.8	.	5.7	-4.9
S=C(Nc1ccc(Br)cc1)NC1CCCCC1	0.4	-18.7	-1.1	-12.2	-6.5	0.4
Cc1ccc(CN2CCS(=O)(=O)CC2)o1	-0.2	-4.1	8.1	13.5	16.9	9.1
C=CCn1nnnc1-c1cccc(Cl)c1	-0.4	3.5	0.0	7.2	-0.6	.
CC1CCCN(C(=O)Nc2cccc(NC(=O)N3CCCC(C)C3C)c2)C1C (stereo not drawn)	-0.5	-10.2	-1.1	-2.3	1.6	0.2
O=C(/C=C/c1ccco1)OCn1nnc2ccccc2c1=O	-0.4	-3.8	-0.6	0.6	-1.8	0.1
COc1ccc(COC(=O)c2sc3nc4n(c(=O)c3c2C)CCC4)cc1	-0.7	-2.0	6.1	19.6	11.8	2.0
COc1cccc(-c2coc3cc4oc(=O)c(CCC(=O)O)c(C)c4cc23)c1	-0.9	-4.2	-77.4*	-10.3	-0.3	-66.9*
COc1ccccc1N1CCN(C(=O)CCc2nnc3ccc(N4CCC(C)CC4)nn23)CC1	0.8	6.5	-4.2	11.4	-20.9	-5.2
Cc1ccc(NC(=O)CS(=O)Cc2nc(-c3ccc(C)cc3)oc2C)cc1 (stereo not drawn)	1.4	-6.2	-7.9	.	2.1	-3.7
Cc1ccc(C(=O)Nc2nnc(-c3cccs3)s2)cc1C	0.7	-6.0	6.5	0.6	32.8	-0.6
COc1ccc(OC)c(NC(=O)C2CCCN2S(=O)(=O)c2cccc3nsnc23)c1 (stereo not drawn)	-0.1	-12.5	-4.7	0.6	12.0	-17.5
COc1ccc(-c2noc(=O)[nH]2)cc1	-0.1	-17.7	1.6	-2.2	-6.1	-3.2

Another view of some results above.
molecule,TRPML1 ag,D2 PAM,Six1-Eya2 blk,TRPV1 PAM,TRPML1 blocker,CtBP-E1A inh
COc1ccc(COC(=O)c2sc3nc4n(c(=O)c3c2C)CCC4)cc1,-0.7,-2.0,6.1,19.6,11.8,2.0
COc1cccc(-c2coc3cc4oc(=O)c(CCC(=O)O)c(C)c4cc23)c1,-0.9,-4.2,-77.4*,-10.3,-0.3,-66.9*
COc1ccccc1N1CCN(C(=O)CCc2nnc3ccc(N4CCC(C)CC4)nn23)CC1,0.8,6.5,-4.2,11.4,-20.9,-5.2
Cc1ccc(NC(=O)CS(=O)Cc2nc(-c3ccc(C)cc3)oc2C)cc1 (stereo not drawn),1.4,-6.2,-7.9,.,2.1,-3.7
Cc1ccc(C(=O)Nc2nnc(-c3cccs3)s2)cc1C,0.7,-6.0,6.5,0.6,32.8,-0.6
COc1ccc(OC)c(NC(=O)C2CCCN2S(=O)(=O)c2cccc3nsnc23)c1 (stereo not drawn),-0.1,-12.5,-4.7,0.6,12.0,-17.5

Random draw from the library. About 0.95% of those tested had a hit in this group.
